# Vif TR-FRET: inhibitors of Vif binding to APOBEC3G peptide, primary screen, biochemical, TR-FRET, GST-Vif 1-94, biotin-A3G peptide, dose response retest (AID 1117319). Virion infectivity factor (Human immunodeficiency virus type 1 group M subtype B (isolate …. TR-FRET GST-Vif / biotin-A3G peptide binding; higher % means a stronger effect; test concentration not given here; strong numbers were not always called active. inhibition, %, or IC50 in µM where a hit was titrated. hit rate 0.57% among 260,000;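 active = above the screen mean plus three standard deviations and confirmed in dose response; inconclusive = results disagree or hit not tested in dose response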;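 note: Vif residues 1-94 fused to GST binding biotinylated APOBEC3G peptide 110-148; 0% = full assay without inhibitor and 100% = GST in place of GST-Vif; retest series ran down from 100 µM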
# HNF4A DNA FP: change in binding of human HNF4A to DNA, primary screen, biochemical, fluorescence polarization, FITC-DNA; AID 1224865, 2016; hit rate 0.3% among 360,000; activity change, % at 10 µM; 1 h; in the data active = activity change above about 30%, passing the limit was not always enough;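 note: controls were the assay level and a saturating level of protein; the project sought stronger binding though the title names inhibitors; some compounds called inactive have numbers as strong as hits; positive values seem to mean higher polarization but the record does not say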
# Beta2AR agonist: beta2AR agonists driving receptor internalization, primary screen, cell-based, FAP fluorogen, flow cytometry | AID 504454, 2011 | Beta-2 adrenergic receptor (Homo sapiens), P07550 | response, % (test concentration not listed) | hit rate 0.43% among 340,000 | Am2.2-beta2AR cells; reference of the scale not given here;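 active = response above a set limit, near 3 SD of response in nonfluorescent compounds, cut at about 42% in these data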;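 note: stock transfer was 100 nL into about 11 µL; a reference agonist was the positive control; negative values mostly stem from fluorescent compounds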
# UCH37 inh: inhibitors of human UCH37 deubiquitinase, primary screen, biochemical, Ub-AMC cleavage, fluorescence | purified proteasome/UCH37 | inhibition, % (test concentration not listed) | Ubiquitin carboxyl-terminal hydrolase isozyme L5 (Homo sapiens), Q9Y5K5 | hit rate 0.33% among 330,000 | AID 588478, 2011;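 active = mean of two replicates above 20%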;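 note: 0% = compound-free wells with enzyme and 100% = wells lacking proteasome; stock transfer was 100 nL into about 20 µL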
#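 Reagent: Ub-AMC substrate; assay system: Proteasome-associated human UCH37 deubiquitinase; controls: no-proteasome and no-compound wells; read-out: % inhibition of Ub-AMC cleavage fluorescence; timing: 30 min preincubation with enzyme, 25 min cleavage at room temperature; signal: AMC fluorescence from Ub-AMC cleavage, excitation 355 nm, emission 460 nm; buffer or medium: Tris-HCl pH 7.4 plus ovalbumin, ATP-MgCl2, DTT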
# LANA-H2A inh: blockers of LANA interaction with H2A/H2B – biochemical, FP readout, HTS, primary screen; hit rate 0.6% among 320,000; cell-free LANA-H2A/H2B peptide, fluorescence polarization; inhibition, % (concentration not given with the values); in the data active = inhibition mostly above about 10%, no sharp cut-off; inactive = mostly below about 6.7%;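 note: stock transfer was 7.5 nL into about 10 µL; 0% = median of vehicle wells and 100% = median of positive control wells; one replicate is shown; the record names a cut of 25% in any replicate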
# Target sequence (Q9QR71 whole entry, looked up): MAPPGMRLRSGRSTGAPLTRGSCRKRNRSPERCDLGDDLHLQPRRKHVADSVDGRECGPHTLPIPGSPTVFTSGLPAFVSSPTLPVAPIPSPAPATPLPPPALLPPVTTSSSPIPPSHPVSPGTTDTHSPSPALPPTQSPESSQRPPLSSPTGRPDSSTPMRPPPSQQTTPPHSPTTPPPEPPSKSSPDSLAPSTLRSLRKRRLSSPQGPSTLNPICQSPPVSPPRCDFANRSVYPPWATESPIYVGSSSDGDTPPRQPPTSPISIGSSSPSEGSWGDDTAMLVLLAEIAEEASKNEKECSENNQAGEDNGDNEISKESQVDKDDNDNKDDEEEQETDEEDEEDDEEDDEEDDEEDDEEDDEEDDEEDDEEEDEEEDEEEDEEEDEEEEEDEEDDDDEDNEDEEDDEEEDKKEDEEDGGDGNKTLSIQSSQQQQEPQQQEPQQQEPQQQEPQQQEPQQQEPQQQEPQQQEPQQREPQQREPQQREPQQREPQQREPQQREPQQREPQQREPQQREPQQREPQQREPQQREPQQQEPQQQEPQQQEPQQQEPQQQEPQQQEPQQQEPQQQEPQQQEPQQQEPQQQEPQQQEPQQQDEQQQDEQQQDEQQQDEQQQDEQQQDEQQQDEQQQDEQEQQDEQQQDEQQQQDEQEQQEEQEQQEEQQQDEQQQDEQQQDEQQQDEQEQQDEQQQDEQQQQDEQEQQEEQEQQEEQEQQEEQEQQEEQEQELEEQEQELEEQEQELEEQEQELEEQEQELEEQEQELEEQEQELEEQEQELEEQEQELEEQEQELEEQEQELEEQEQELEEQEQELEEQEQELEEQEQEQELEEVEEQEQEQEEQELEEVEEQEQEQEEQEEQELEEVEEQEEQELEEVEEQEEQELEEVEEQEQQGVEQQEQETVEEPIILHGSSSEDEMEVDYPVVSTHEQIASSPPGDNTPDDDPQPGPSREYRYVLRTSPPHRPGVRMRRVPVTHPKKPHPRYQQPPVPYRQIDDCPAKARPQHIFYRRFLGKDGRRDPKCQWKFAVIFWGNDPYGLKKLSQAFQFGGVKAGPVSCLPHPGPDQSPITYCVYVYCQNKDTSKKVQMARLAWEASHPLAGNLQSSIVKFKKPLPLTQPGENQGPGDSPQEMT
# A1 inh: caspase 3/7 activation in MEF A1-2A-BIM cells, primary screen, A1 inhibitor project, cell-based, luminescence, HTS. caspase activation, % (test concentration not listed). AID 2462, 2010. hit rate 0.066% among 330,000. Caspase-Glo 3/7 luminescence, 3 h; percent of clofoctol response, vehicle zero;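 active = over half of replicate activation scores above 10%, or exactly half above 10 with the replicate mean above 10; inconclusive = replicate mean below 10 yet half the replicates above 10; inactive = over half of replicates below 10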;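 note: wells of about 30 µL received 50 nL stock; many hits fall short of the cut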
# Ecoli growth: E. coli growth inhibition, primary screen, OD600; hit rate 0.21% among 330,000; OD600 absorbance (test concentration not listed); Escherichia coli growth, 23 h; active compounds read low;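 active = OD600 absorbance below the run mean of sample wells minus 3.6 SD, in any replicate, cut at about 0.56 in these data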;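 note: stock transfer was 300 nL into about 60 µL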
# Starred values were filed as active, the others as inactive; ? = inconclusive; / = no result given; & = joins results of further samples. An unsorted share of the library; overall some 2.1% were active at least once.
# Values run as follows: Vif TR-FRET	HNF4A DNA FP	Beta2AR agonist	UCH37 inh	LANA-H2A inh	A1 inh	Ecoli growth
- O=C(c1ccc(S(=O)(=O)NCC2CCCO2)cc1)N1CCN(c2cccc(Cl)c2)CC1 (stereo unspecified)
    2%	3.5	-5	6.5	/	/	0.7
- O=C(c1cc(S(=O)(=O)N2CCN(c3ccccc3)CC2)ccc1Cl)N1CCCC(C(F)(F)F)C1 (stereo unspecified)
    3%	4.2	0	2.0	3.7	-0.1	0.7
- CCc1cccc(C)c1NC(=O)C1CCN(c2nn3c(=O)cc(C)nc3s2)CC1
    /	-0.1	-1	2.9	-13	0.0	0.63
- NC(=O)C1(N2CCCCC2)CCN(Cc2nc(-c3cccs3)no2)CC1
    ?	0.0	-5	3.1	-1.0	-0.4	0.66
- CC(/C=C/c1ccccc1)=N\Nc1nc(C)cc(C)n1
    /	-4.5	0	/	4.4	-0.5	/
- Cc1ccc(S(=O)(=O)N2CCOC2CNC(=O)C(=O)NCCN2CCOCC2)cc1 (stereo unspecified)
    /	-4.0	-3	/	-1.8	0.9	/
- CC(C)C(NC(=O)c1ccccc1)C(=O)N1CCCCCC1 (stereo unspecified)
    /	1.2	-7	-0.3	1.5	1.9	0.66
- O=C(c1cc([N+](=O)[O-])ccc1N1CCCC1)N1CCCCC1
    /	-2.9	1	10	1.4	0.9	0.73
- C(=N\Nc1nc(-c2ccccc2)cs1)/c1ccncc1
    /	6.7	-13	/	1.5	1.0	/
- CC(=O)OC1CCC2(C)C(CCC3C2CC(=O)C2(C)C3CC(C3CCCC3=O)C2C(C)=O)C1 (stereo unspecified)
    12%	2.8	5	2.5	/	/	0.67
- Cc1cc(NC(=O)CN(C)CC(=O)Nc2ccc(Cl)cc2)no1
    /	-0.1	-4	/	2.4	1.7	/
- CCOC(=O)c1cc2c(c(CSc3nc4ccccc4c(=O)n3Cc3ccco3)c1)OCOC2
    -5%&1%	-11	-6	4.0	-4.6	-0.3	0.73
- Cc1ccccc1OCCC(=O)OCC(=O)NCCc1ccc(S(N)(=O)=O)cc1
    -2%	0.1	-2	-1.5	-433	0.5	0.65
- O=C(CSc1nc(=O)n2cc(Cl)ccc2n1)Nc1ccc2c(c1)OCCO2
    18%	12	-4	2.9	-7.6	-1.0	0.67
- CN(c1ccc(OCC(=O)OCC(=O)Nc2ccc(F)cc2)cc1)S(=O)(=O)c1ccc(Cl)cc1
    12%	-3.8	2	1.1	1.0	-0.2	0.6
- COc1ccc(N(CC(=O)NC2CCCCCC2)S(=O)(=O)c2ccc(C)cc2)cc1OC
    16%	-5.0	9	3.7	4.4	0.1	0.71
- COc1ccc(NC(=O)Nc2c(SC)nsc2SC)cc1
    /	1.0	-6	2.2	1.9	-0.7	0.69
- CCNC(=O)CCCOc1ccc(Cl)cc1Cl
    11%	0.6	3	-0.9	-3.6	-0.4	0.7
- CCCCn1c(N)c(N(CCC(C)C)C(=O)CCCc2nc3ccccc3s2)c(=O)[nH]c1=O
    0%	4.5	-7	3.2	4.3	0.3	0.7
- COc1cc(/C=N/NC(=O)C(=O)/C=C2\NC3(CCCC3)Cc3ccccc32)ccc1O
    /	1.3	21	/	1.3	0.0	/

# Continuation:
# Values run as follows: Vif TR-FRET	HNF4A DNA FP	Beta2AR agonist	UCH37 inh	LANA-H2A inh	A1 inh	Ecoli growth
- NS(=O)(=O)c1ccc(NC(=O)CSc2nnc3n2CCCCC3)cc1
    /	-0.8	-5	1.3	-7.7	0.2	0.67
- CC(=O)Nc1ccc(Nc2nc(-c3c(C)nc4ccccn34)cs2)cc1
    /	2.5	2	-2.9	4.8	1.1	0.65
- CCN1C(=O)c2ccc(-c3nc4ccccc4c(=O)o3)cc2C1=O
    -12%	0.6	9	-25	-2.4	-0.2	0.73
- Cn1c(=O)n(Cc2ccccc2)c(=O)c2c1nc(NCC1CCCO1)n2Cc1ccccc1 (stereo unspecified)
    33%&-4%	-7.0	-4	1.3	1.2	0.1	0.73
- CCc1ccc(NC(=O)CN(c2ccc(OC)cc2)S(=O)(=O)c2c(C)nn(C)c2C)cc1
    -8%	-5.9	1	-0.2	5.2	0.9	0.68
- CCOc1ccc(NC(=O)C2CCN(C(=O)C3CC(=O)N(c4ccc(C)cc4)C3)CC2)cc1 (stereo unspecified)
    -5%	-1.5	0	4.0	4.3	0.0	0.69
- O=C(CCN1CCN(c2ccccc2)CC1)NNC(=O)Cc1ccc(Br)cc1
    3%	2.6	0	5.7	/	/	0.65
- COc1ccnc(CSC(N)=Nc2ccc(F)cc2)c1
    ?	0.4	-1	6.6	5.4	0.4	0.69
- COc1ccccc1OCCC(=O)OCCN1C(=O)c2ccccc2C1=O
    -2%	-1.0	1	0.5	-3.3	-0.3	0.73
- CCn1nnc(-c2ccc(N)cc2)n1
    14%	3.0	3	0.8	-2.1	0.2	0.68
- CCCCOCC1CN(c2ccccc2)C(=O)CS1 (stereo unspecified)
    2%	-1.7	1	3.5	-2.4	1.5	0.74
- C=CCO/N=C(/C)c1ccc(Oc2cnccn2)cc1
    /	-1.5	18	/	-5.4	0.6	/
- COc1ccc(C(=O)C2CCCN(C(=O)c3cccc(N(C)C)c3)C2)cc1OC (stereo unspecified)
    /	-3.2	8	3.5	1.0	0.9	0.7
- O=C1NC(c2ccc(-c3ccccc3[N+](=O)[O-])o2)C(C(=O)c2ccc(Cl)cc2)C(O)(C(F)(F)F)N1 (stereo unspecified)
    15%	-4.1	-2	5.2	-2.8	0.1	0.68
- C=Cn1c(C(=O)O)ccc1-c1ccc(CC)cc1
    3%	7.5	0	3.5	4.2	0.0	0.7
- CC(=O)c1ccc(NC(=O)C2C3CCC(C3)C2C(=O)O)cc1 (stereo unspecified)
    /	0.1	4	5.0	0.2	-0.5	0.72
- O=c1c2c([nH]c3ccccc13)CCCC2
    -10%	-1.2	-7	2.4	-5.2	-0.3	0.62
- O=C(CSc1nc2ccc(Cl)cc2[nH]1)c1c[nH]c2ccccc12
    9%	0.8	6	1.1	2.9	0.4	0.68
- CCCCCCc1cc2cc(S(=O)(=O)c3ccc(F)c(Cl)c3)c(=O)oc2cc1O
    /	-2.7	17	-221	/	-0.4	0.69
- Cc1c(N2C(=O)CSC2c2ccccc2)c(=O)n(-c2ccccc2)n1C (stereo unspecified)
    -1%	2.4	1	6.4	4.3	0.1	0.67

# Other entries:
# Values run as follows: Vif TR-FRET	HNF4A DNA FP	Beta2AR agonist	UCH37 inh	LANA-H2A inh	A1 inh	Ecoli growth
- COc1ccc(S(=O)(=O)/N=C2/C=CC(=O)C(C)=C2C)cc1
    10%	1.4	8	/	0.2	-0.1	/
- Nc1cc(=O)[nH]c(SCC(=O)N2CCN(S(=O)(=O)c3ccc4ccccc4c3)CC2)n1
    /	0.4	3	-1.3	0.1	-1.7	0.66
- CCCCCCCCCCCCCCCCn1cc[n+](CC(C)=O)c1
    9%	16	9	85*	/	/	0.064*
- Cc1nc(-c2ccccc2)nc2[nH]ccc(=O)c12
    4%	4.8	8	4.3	3.5	1.0	0.7
- O=C(c1cccc(S(=O)(=O)N2CCCC2)c1)N1CCCC(C(F)(F)F)C1 (stereo unspecified)
    /	10	0	-1.2	1.5	0.0	0.69
- Cc1ccc(SCCN2C(=O)NC(C)(C)C2=O)cc1
    7.3µM*	0.3	-5	3.4	3.8	-1.6	0.68
- CS(=O)(=O)c1ccc(Cl)c(NC(=O)CCc2ccccc2)c1
    22%	-2.3	-1	1.3	1.2	-1.1	0.7
- CCOC(=O)CCCCC(=O)c1[nH]c(=O)[nH]c1CSc1nc(-c2ccccc2)c(C#N)c(=O)[nH]1
    -30%&-6%	-5.1	-4	4.8	0.8	-0.3	0.66
- COc1ccc(S(=O)(=O)N2CCOCC2)cc1NC(=O)CCNC(=O)c1ccc([N+](=O)[O-])cc1
    3%	0.9	1	2.6	-1.7	0.4	0.68
- CC(=O)c1cccc(NC(=O)C(C)N(C)CC(=O)Nc2ccc(Cl)cc2)c1 (stereo unspecified)
    4%	-1.7	-3	2.2	-3.1	-0.5	0.64
- CCN(CC)C(=O)CSc1nc2ccsc2c(=O)n1CCCC(=O)NCCc1ccc(S(N)(=O)=O)cc1
    /	0.4	-1	0.4	1.0	0.0	0.64
- CN(CC(=O)N1CCN(c2ccccc2)CC1)S(=O)(=O)c1cnc[nH]1
    3%	-0.4	2	-1.2	-0.4	0.1	0.7
- Cn1c(=O)c2[nH]c(C(O)c3ccc(Cl)cc3)nc2n(C)c1=O (stereo unspecified)
    2%	-0.7	-7	/	/	/	/
- Cc1ccn2cc(-c3cccc(S(=O)(=O)N4CC(C)OC(C)C4)c3)nc2c1 (stereo unspecified)
    11%	4.8	7	-1.7	1.3	-0.3	0.71
- COc1cc(NS(=O)(=O)c2ccc(NS(=O)(=O)c3ccc(C)cc3)cc2)nc(OC)n1
    /	-0.4	-3	6.0	-1.2	-0.3	0.67
- CCc1ccc(Cn2nnc(C(=O)Nc3ccc(OC)cc3OC)c2N)cc1
    6%	-1.2	-3	-24	2.9	-0.6	0.74
- O=C(NCCCn1ccnc1)c1c(F)cccc1F
    -7%	2.1	-3	4.2	1.0	-0.5	0.7
- C=CCOc1ccc(CNn2cn[nH]c2=S)cc1OCC
    0%	-4.4	-2	4.1	7.3	-0.7	0.7
- COc1cc(NC(=O)c2noc(C)c2[N+](=O)[O-])c(OC)cc1Cl
    /	3.9	10	-1.9	-2.0	0.1	0.7
- O=C(O)C[C@H]1c2ccccc2S(=O)(=O)N1C1CCCC1
    /	1.5	5	1.4	2.6	0.2	/

# (listing goes on)
# Values run as follows: Vif TR-FRET	HNF4A DNA FP	Beta2AR agonist	UCH37 inh	LANA-H2A inh	A1 inh	Ecoli growth
- O=C(C1=C[C@H](c2csc3ccccc23)C[C@H](OCCCCO)O1)N1CCOCC1
    13%	-2.1	-12	0.4	-0.5	-0.9	/
- Cc1ccc(Oc2ncnc(N)c2[N+](=O)[O-])cc1C
    18%	0.7	7	3.7	5.4	0.3	0.7
- Cc1ccc(SCC(=O)Nc2ccc(-c3nnc(-c4ccco4)o3)cc2)cc1
    0%	-0.7	82*	-2.1	5.0	-0.8	0.77
- CN(/N=C/c1ccccc1)C(=S)c1ccccc1
    /	1.3	-1	/	-2.5	0.6	/
- O=C(COC(=O)c1c2c(nc3ccccc13)CCCCC2)NCc1ccc2c(c1)OCO2
    -3%	3.7	4	/	1.5	0.3	/
- O=C(c1ccc([N+](=O)[O-])o1)N1CCN(Cc2ccccc2)CC1
    3%	-1.5	10	8.2	-3.0	1.6	0.61
- CC(=O)NCCNc1ccc([N+](=O)[O-])cc1C#N
    ?	1.1	6	8.4	-461	0.7	0.69
- Cc1ccc(NCc2n[nH]c(=S)n2Cc2ccccc2)cc1Cl
    -4%	0.5	3	3.1	/	/	0.63
- CCOC(=O)c1ccc(-c2cccc(C(F)(F)F)c2)nc1C
    -4%	4.8	12	0.8	1.2	-1.1	0.7
- CCOc1c(Br)cc(/C=N\NC(=O)c2ccccc2)cc1OC
    8%	-1.1	28	/	1.6	-1.6	/
- COC(=O)C1=C(CS(=O)(=O)c2ccc(C)cc2)NC(=O)NC1c1ccc(OC)c(OC)c1 (stereo unspecified)
    7%	-4.7	8	-1.0	-0.7	-2.4	0.63
